From PubChem
Marburg entry inh = inhibitors of Marburg virus binding or cell entry; Marburg virus pseudotyped entry inhibition, cell reporter; control for the full effect not named in the record; about a third of the inactives were read at about 46 µM; Potency, µM (titrated, usually from 37.8 µM), for inactives: at the highest dose activity change, negative = inhibition, actives largely listed as inhibitors; 300,000 compounds, 1.8% hits; active = well fitted inhibition curve with a large enough effect; inconclusive = small, poorly fitted or top-dose-only effect, or effect the other way; inactive = flat fitted curve, though single readings scatter; tested in HEK293 cells; about a fifth of its hits are not listed in these tables; further: on the % scale 0 is the no-effect control and ±100 the full control effect; luciferase read-out
RE007 growth inh = less growth of the S. pombe RE007 Vpr strain; S. pombe RE007 Vpr strain, BacTiter-Glo ATP luminescence, 24 h; control for the full effect not named in the record; Potency, µM (series often up to 92.2 µM), without a hit: top-dose activity change, negative = less growth; 360,000 compounds, 0.21% hits; active = well fitted falling curve with a large enough effect; inconclusive = small, poorly fitted or top-dose-only effect; inactive = no such curve, though single readings can be large or run the other way;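 further: on the % scale 0 is the no-effect control and ±100 the full control effect; nearly all actives have a fitted effect of over 50% in size; the assay follows cell death caused by Vpr and the record does not say whether a fall means rescue or toxicity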
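Fission yeast RE007 carrying one integrated HIV-1 vpr copy, seeded at OD 0.01 in PMG+AL medium with 23 nL pinned compound. Grown 24 h at 30 degrees; viability read by BacTiter-Glo luminescence after 5 min.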
StopGo reporter = lowers the luciferase signal of an FMDV 2A StopGo reporter | human cells with a luciferase reporter of 2A StopGo recoding; control for the full effect not named in the record | Potency, µM (doses to about 57.9 µM), for inactives: at the top dose signal change, negative = less light | 410,000 compounds, 1.2% hits | AID 1159524; active = well fitted falling curve with a large enough effect; inconclusive = small, poorly fitted or top-dose-only effect; inactive = no such curve, though single readings can be large or run the other way; tested in HEK293T cells; further: on the % scale 0 is the no-effect control and ±100 the full control effect; nearly all actives have a fitted effect of over 45% in size; luciferase light after 4 h
NS1 function inh = blocks influenza NS1 protein function; S. cerevisiae slowed by influenza A NS1, growth recovery by OD600; 270,000 compounds, 0.4% hits; AID 2326; Potency, µM (top dose mostly 46.1 µM), without a hit: top-dose activity, positive = more growth; active means well fitted rising curve with a large enough effect; inconclusive means small, poorly fitted or top-dose-only effect; inactive means no such curve, though single readings can be large or run the other way; further: nearly all actives have a fitted effect of over 50% in size
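In this qHTS, NS1 from influenza A is expressed in budding yeast, where it slows growth. Cells are switched from glucose to 2% galactose medium (pH 6.0, -URA), treated with compound, and growth recovery is read at OD600.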
LASV entry inh = inhibitors of Lassa virus binding or cell entry; Lassa virus pseudotype entry inhibition, cell reporter; control for the full effect not named in the record; Potency, µM (highest dose often 37.9 µM), for inactives: at the top dose activity change, negative = inhibition, actives largely listed as inhibitors; 300,000 compounds, 1.2% hits; active means well fitted inhibition curve with a large enough effect; inconclusive means small, poorly fitted or top-dose-only effect, or effect the other way; inactive means flat fitted curve, though single readings scatter; tested in HEK293 cells; further: on the % scale 0 is the no-effect control and ±100 the full control effect; nearly all actives have a fitted effect of over 50% in size; luciferase read-out
Numbers without * were called inactive; ? = inconclusive; . = no result given; [ ] = remark or other dose. Potency means the concentration at half of the fitted maximal effect. An excerpt, so the mix of outcomes need not match the whole.

Each structure is followed by: Marburg entry inh | RE007 growth inh | StopGo reporter | NS1 function inh | LASV entry inh
COC(=O)C1=C(c2cc3ccccc3s2)C[C@@H]2CC[C@H]1N2C(=O)NCc1cccc2ccccc12
 : . | 1.3% | -28.5% | . | .
COc1ccc(Cn2cc(CN3CC(N4CCN(CCO)CC4)CS3(=O)=O)nn2)cc1 (stereo not given)
 : . | -10.8% | -11.0% | . | .
COc1ccc(NC(=O)c2ccccc2NC(=O)C2CC=CCC2C(=O)O)cc1 (stereo not given)
 : . | 5.0% | 0.0% | 16.8% | .
COc1ccc(CCC(=O)NC2CCCCC2)cc1
 : . | 8.8% | -11.1% | -2.8% | .
COC(=O)CN1CCN(C(=O)c2ccco2)CC1
 : . | 1.1% | -13.4% | 8.2% | .
CCOC(=O)c1cc2c(=O)n3ccccc3nc2n(Cc2ccc(Cl)cc2)c1=N
 : . | 8.2% | -15.3% | -10.2% | .
CC(=O)Nc1ccc(S(=O)(=O)N2CCN=C2SCc2ccc(F)cc2)cc1
 : . | 4.2% | ? | 7.8% | .
COc1ccc(-n2nc(C(=O)N3CCC(C#N)CC3)c3c4ccccc4n(C)c3c2=O)cc1
 : . | 6.1% | -20.3% | -40.9% | .
CCOC(=O)C1(CCOc2ccccc2)CCN(Cc2ccc(OC)c(O)c2)CC1
 : . | -4.2% | ? | 13.9% | .
O=C(Nc1cccnc1)c1cc2c(s1)-c1ccccc1OC2
 : . | 0.0% | 4.8% | -49.9% | .
CCCCC(=O)NCCc1cc2c(C)ccc(C)c2[nH]c1=O
 : . | -2.4% | -17.5% | -4.4% | .
O=C(CN1CCN(c2ccc(F)cc2)CC1)c1ccc(O)cc1O
 : . | -3.2% | -22.4% | -8.6% | .
Cc1ccc2[nH]c3c(=O)n(CC(=O)N4CCN(C)CC4)ncc3c2c1
 : . | 5.9% | -17.5% | 1.0% | .
Cc1cc(OCC(=O)Nc2nccs2)c2c(C)cc(=O)oc2c1
 : . | -2.1% | -4.9% | 4.4% | .
CCN(CC)CCCN1C(=O)C(=O)/C(=C(/O)c2c(C)nc3ccccn23)C1c1ccc(C)o1 (stereo not given)
 : . | 2.6% | -3.1% | 7.0% | .
COc1ccc(NC(=O)CSc2nnnn2-c2ccccc2OC)c(OC)c1
 : . | 10.2% | -2.6% | -0.2% | .
O=C1CSCN1c1ccc(Cl)c(Cl)c1
 : . | -4.2% | 3.8% | -1.7% | .
CCCNc1c(NS(=O)(=O)c2ccc(OC)c(OC)c2)c(=O)oc2ccccc12
 : . | 12.6% | -9.5% | 8.5% | .
C/C(=N\NC(=O)c1cccs1)c1c(O)cc(C)oc1=O
 : . | -3.8% | 22.1% | -38.9% | .
CN1CCN(C2CCCCC2NS(=O)(=O)c2ccc(Cl)cc2)CC1 (stereo not given)
 : . | -3.5% | -23.2% | -0.3% | .

Next records
Each structure is followed by: Marburg entry inh | RE007 growth inh | StopGo reporter | NS1 function inh | LASV entry inh
CSc1nnc(Cn2c(=O)sc3ccccc32)n1-c1ccccc1C
 : . | 11.5% | -1.4% | 8.6% | .
Cc1nn(C)c(C)c1NC(=O)CSc1nc(-c2ccccc2F)nc2c1cnn2-c1ccccc1
 : . | -0.7% | -17.7% | 17.4% | .
CCN(CC(=O)N1CCCC1)S(=O)(=O)c1ccc(F)cc1
 : . | 2.3% | -12.5% | 11.5% | .
CC(=O)Nc1cc2nc(C)n(Cc3ccccc3[N+](=O)[O-])c2nc1C
 : . | -16.4% | -9.1% | 11.1% | .
Cc1cccc(OC(C)C(=O)Nc2nccs2)c1 (stereo not given)
 : . | 3.8% | 3.7% | 6.4% | .
CC1CCc2c(sc(NC(=O)c3noc4c3CCCC4)c2C(N)=O)C1 (stereo not given)
 : . | 4.8% | 30.8%[activator] | -7.9% | .
Cc1ccc(-n2nc3c(=O)n(C(C)C(=O)NC4CC4)nc(C)c3c2C)cc1 (stereo not given)
 : . | -0.5% | -15.8% | 7.0% | .
CC(=O)c1ccc(OC(=O)COc2ccccc2)cc1
 : . | 17.2% | -3.4% | 17.8% | .
O=C(N1CCOCC1)N1CCN(S(=O)(=O)c2cccc([N+](=O)[O-])c2)CC1
 : . | 1.9% | -8.2% | 2.7% | .
CCOC(=O)CCNC(=O)N1CCCC(N(C)CCc2ccc(OC)c(OC)c2)C1 (stereo not given)
 : . | -2.8% | -16.2% | 15.0% | .
Cc1ccsc1/C=N/NC(=O)C(O)c1ccccc1 (stereo not given)
 : . | 1.8% | 0.0% | 13.8% | .
Cc1ccc(SCC(=O)OCC(=O)NC2(C#N)CCCCC2)cc1
 : . | 0.7% | 10.4% | -3.7% | .
Cc1ccccc1NC(=O)NC1CCCCCCC1
 : . | 18.8% | 30.2%[activator] | 1.2% | .
COc1ccccc1CNC(=O)C(NC(=O)C1CCCCC1)C(C)C (stereo not given)
 : . | 12.5% | -6.6% | 2.5% | .
COCCCn1c(=N)c(C(=O)NCc2ccc3c(c2)OCO3)cc2c(=O)n3cccc(C)c3nc21
 : . | -1.8% | -4.0% | 6.6% | .
COc1ccc(C2=NOC(C(=O)N3CCN(C(=O)c4ccco4)CC3)C2)cc1OC (stereo not given)
 : . | 10.8% | -5.0% | 6.6% | .
O=C(c1ccc(Cl)c([N+](=O)[O-])c1)N(Cc1ccco1)C1CCS(=O)(=O)C1 (stereo not given)
 : . | -9.1% | -19.2% | 9.3% | .
N/C(=N\OC(=O)C1CCCCC1)c1ccc(Cl)cc1
 : . | -18.1% | 41.7%[activator] | -3.6% | .
O=S1(=O)CCOC[C@H](CC2CCCCC2)N1Cc1ccc(F)cc1
 : . | -0.5% | -19.8% | -5.1% | .
O=C(O)/C=C(/c1ccccc1)C(F)(F)F
 : . | -1.9% | -23.3% | -3.5% | .

Part of the list above, reduced to RE007 growth inh, Marburg entry inh and StopGo reporter.
SMILES,RE007 growth inh,Marburg entry inh,StopGo reporter
CC1CCc2c(sc(NC(=O)c3noc4c3CCCC4)c2C(N)=O)C1 (stereo not given),4.8%,.,30.8%[activator]
CCN(CC(=O)N1CCCC1)S(=O)(=O)c1ccc(F)cc1,2.3%,.,-12.5%
CSc1nnc(Cn2c(=O)sc3ccccc32)n1-c1ccccc1C,11.5%,.,-1.4%
CCOC(=O)CCNC(=O)N1CCCC(N(C)CCc2ccc(OC)c(OC)c2)C1 (stereo not given),-2.8%,.,-16.2%

(cont.)
Each structure is followed by: Marburg entry inh | RE007 growth inh | StopGo reporter | NS1 function inh | LASV entry inh
O=C(CNC(=O)N1CC(=O)Nc2ccccc21)Nc1ccc(Cl)cc1
 : . | -6.0% | -8.8% | -4.0% | .
COc1cccc(C(=O)Nc2cccc(-c3nnc(-c4ccccc4)o3)c2)c1
 : . | 2.0% | ? | -17.6% | .
CCOC(=O)C1CCN(C(=O)c2ccc3c(c2)NC(=O)/C(=C\c2cccc(C)c2)S3)CC1
 : . | 4.9% | -14.2% | 26.4% | .
CC(=O)C1=C(C)N=c2s/c(=C/c3ccc4c(c3)OCO4)c(=O)n2C1c1ccc(N(C)C)cc1 (stereo not given)
 : . | -3.3% | 5.7% | ? | .
O=C(NCc1ccccn1)C1CCC(=O)N1C1CCCC1 (stereo not given)
 : . | 2.6% | -4.5% | 2.1% | .
Cc1cc(=O)n2nc(N3CCC(C(=O)Nc4c(F)c(F)c(F)c(F)c4F)CC3)sc2n1
 : . | 3.2% | -15.3% | 4.1% | .
COC(=O)c1cccc(Oc2nc3c(c(=O)n(C)c(=O)n3C)n2Cc2ccc(C)cc2)c1
 : . | -23.5% | ? | -91.6% | .
Cc1cccc(NC(=O)c2cnc3sccn3c2=O)n1
 : . | -6.2% | 37.2%[activator] | 1.3% | .
O=C(O)c1ccccc1-c1ccccc1C(=O)Nc1ccccc1-c1ccccc1
 : . | 5.1% | 7.3% | 10µM* | .
Cc1ccc(CN2CCN(CC(=O)N3CCC(C(N)=O)CC3)C2=O)cc1
 : . | -7.9% | -13.2% | 21.1% | .
COc1ccc(CCC(C)NCCc2ccc(Cl)cc2Cl)cc1 (stereo not given)
 : . | -16.7% | 12.9% | -17.3% | .
c1ccc(-c2cc3ncc4c(n3n2)-c2ccccc2OC4)cc1
 : ? | . | 38.9%[activator] | . | ?
O=C(CC1C(=O)OCCN1Cc1ccccc1)Nc1cccc(C(F)(F)F)c1 (stereo not given)
 : -2.6%[46.1 µM] | . | -24.0% | . | -0.3%[46.1 µM]
COc1ccccc1NC(=O)CN1CCCN(S(=O)(=O)c2ccc(Br)cc2)CC1
 : -3.7%[46.1 µM] | . | ? | . | -20.0%[46.1 µM]
CC1CCc2c(sc(NC(=O)c3cc4nc(-c5ccc(Cl)cc5)cc(C(F)(F)F)n4n3)c2C#N)C1 (stereo not given)
 : -0.3%[46.1 µM] | . | -5.7% | . | 15.6%[46.1 µM]
COc1ccc(-c2cc(-c3ccccc3)nc3c2COc2ccc(F)cc2-3)cc1
 : -18.3%[46.1 µM] | . | -10.5% | . | 11.1%[46.1 µM]
CCOC(=O)COc1ccc(CC)cc1C(=O)c1ccn2nc(-c3ccc(Cl)cc3)cc2n1
 : 8.3%[46.1 µM] | . | -5.3% | . | 23.0%[46.1 µM]
O=C(c1cnc2cc(-c3ccccc3)nn2c1)c1cc([N+](=O)[O-])ccc1O
 : -0.7%[46.1 µM] | . | ? | . | 0.8%[46.1 µM]
O=c1c(-c2cc(-c3ccccc3)nc3c2COc2ccc(Cl)cc2-3)coc2ccccc12
 : -3.1%[46.1 µM] | . | -2.1% | . | 7.2%[46.1 µM]
O=C1COc2ccc(-c3cc(-c4ccccc4)c4c(n3)-c3ccccc3OC4)cc2N1
 : 8.0%[46.1 µM] | . | -15.3% | . | ?

Continuation.
Each structure is followed by: Marburg entry inh | RE007 growth inh | StopGo reporter | NS1 function inh | LASV entry inh
CCOC(=O)c1c(NC(=O)CSc2cn(CCNC(=O)c3ccc(OC)c(OC)c3)c3ccccc23)sc2c1CCC2
 : -8.4%[46.1 µM] | . | ? | . | ?
CCOC(=O)COc1ccc([N+](=O)[O-])cc1-c1ccnc2cc(-c3ccc(Cl)cc3)nn12
 : 8.1%[46.1 µM] | . | -16.5% | . | -0.3%[46.1 µM]
CCOC(=O)c1c(NC(=O)CSc2cn(CCNC(=O)c3ccc(OCC)cc3)c3ccccc23)sc2c1CCCC2
 : ? | . | -3.1% | . | -3.2%[46.1 µM]
Cc1ccc2c(c1)-c1nc(-c3ccc4c(c3)NC(=O)CO4)cc(-c3ccc(Cl)cc3)c1CO2
 : -10.2%[46.1 µM] | . | -8.2% | . | 3.8%[46.1 µM]
COc1cc(C2N=C(N)Nc3nc4ccccc4n32)ccc1OCCC(C)C (stereo not given)
 : -3.7%[46.1 µM] | . | -12.9% | . | -20.3%[46.1 µM]
CCOC(=O)COc1ccc(CC)cc1C(=O)c1ccn2nc(-c3ccc(C)cc3)cc2n1
 : ? | . | -5.0% | . | ?
CNC(=O)[C@H]1O[C@@H](n2cnc3c(NCc4ccc(N)cc4)ncnc32)[C@H](O)[C@@H]1O
 : -2.1% | . | -7.7% | . | 4.4%
COc1ccccc1C(=O)NCCn1cc(SCC(=O)Nc2ccccc2F)c2ccccc21
 : ? | . | 0.0% | . | ?
CCc1ccc(NC(=O)CC2C(=O)OCCN2CC)cc1 (stereo not given)
 : -26.8%[46.1 µM] | . | -3.6% | . | -6.7%[46.1 µM]
COc1ccc(C(=O)NCCn2cc(SCC(=O)NCCc3ccc(OC)c(OC)c3)c3ccccc32)cc1
 : -8.0%[46.1 µM] | . | -24.3% | . | -29.5%[46.1 µM]
NC1=NC(c2cc(F)cc(F)c2)n2c(nc3ccccc32)N1 (stereo not given)
 : -12.2%[46.1 µM] | . | 2.9% | . | -4.0%[46.1 µM]
O=C(Nc1cc(Cl)ccc1Cl)c1cc2nc(-c3ccc4c(c3)OCO4)cc(C(F)(F)F)n2n1
 : 2.8%[46.1 µM] | . | -19.1% | . | 7.8%[46.1 µM]
